# Screening data from PubChem BioAssay.
# MT1-MMP act inh: inhibitors of human MT1-MMP activation. P50281. HT1080 RFP-PRO-GFP cells, GFP/RFP ratio fluorescence, overnight; percent of plate control window, DMSO zero. GFP/RFP ratio change, % at 20 µM. 360,000 tested, 0.061% active;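 active means GFP/RFP ratio change of at least 30% with cell ATP level not reduced by more than half and red fluorescence within 50% of control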; further: strong numbers were not always called active
#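 Material: RFP-PRO-GFP reporter HT1080 cells. Dosing: single-point 20 µM compound, 1% DMSO. Controls: DMSO and RFP-L50D-GFP cell wells. Timing: cells overnight before dosing, compound overnight, 37 °C, 5% CO2. Measure: GFP/RFP fluorescence ratio.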
# CSC inhib: cancer stem cell inhibition; cancer stem cell-like cells viability, luminescence; inhibition, % at 7.5 µM; 300,000 tested, 1.1% active;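 active means mean at 75% or more and at least half the replicates too; tested in HMLE shEcad cells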;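 further: 0% = median of negative and 100% = median of positive control wells; the first replicate is given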
# PABP FP inh: PABP-poly(A) binding inhibition | P11940 | PABP-poly(A) RNA binding, fluorescence polarization | inhibition, % at 35 µM | 290,000 tested, 1% active | AID 2014;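 active means 50% or more with normal probe brightness, or confirmed in later tests; about a fifth of its hits are not listed in these tables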;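 further: calls also rest on retests at 20 µM and on dose response follow-up; controls were probe without protein and protein plus probe with vehicle; some compounds called inactive have numbers as strong as hits; many hits fall short of the cut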
# Target sequence (P11940 whole entry, looked up): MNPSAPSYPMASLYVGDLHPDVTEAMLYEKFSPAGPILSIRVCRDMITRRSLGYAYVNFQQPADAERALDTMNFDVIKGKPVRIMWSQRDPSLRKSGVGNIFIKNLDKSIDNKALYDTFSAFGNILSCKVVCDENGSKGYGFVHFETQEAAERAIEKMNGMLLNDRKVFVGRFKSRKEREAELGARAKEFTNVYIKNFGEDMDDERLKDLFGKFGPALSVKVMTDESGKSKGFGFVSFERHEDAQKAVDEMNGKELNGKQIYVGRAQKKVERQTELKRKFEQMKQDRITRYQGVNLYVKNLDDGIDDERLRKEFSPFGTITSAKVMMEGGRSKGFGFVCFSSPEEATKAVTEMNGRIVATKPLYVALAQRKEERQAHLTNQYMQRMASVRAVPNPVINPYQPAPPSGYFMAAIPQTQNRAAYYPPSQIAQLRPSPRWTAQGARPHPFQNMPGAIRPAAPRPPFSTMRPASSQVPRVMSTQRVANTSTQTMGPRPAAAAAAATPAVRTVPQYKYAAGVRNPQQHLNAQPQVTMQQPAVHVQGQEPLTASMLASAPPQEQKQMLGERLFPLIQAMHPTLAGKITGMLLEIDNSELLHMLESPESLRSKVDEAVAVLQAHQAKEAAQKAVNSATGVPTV
# Env fusion inh: blocks HIV Env-driven cell-cell fusion; HeLa-JRFL Env/CEM21 cell fusion, luciferase; inhibition, % at 12.3 µM; 360,000 tested, 1.1% active; AID 651610;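 active means mean replicate inhibition score of at least 50 and every replicate individually at or above 50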;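 further: 0% = plate neutral controls and 100% = maraviroc near 300 nM; one replicate is shown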
# Rce1 inh: inhibitors of yeast Ras-converting enzyme; Q03530; yeast membranes, quenched prenylated peptide cleavage fluorescence; calls only; 290,000 tested, 0.27% active;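 active means fall in fluorescence gain of 50% or more versus controls, with final raw signal at or below 3038400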;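 further: plate controls were neutral control wells for no effect and wells lacking membranes for full effect; tested at 10 µM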
# Target sequence (Q03530 whole entry, looked up): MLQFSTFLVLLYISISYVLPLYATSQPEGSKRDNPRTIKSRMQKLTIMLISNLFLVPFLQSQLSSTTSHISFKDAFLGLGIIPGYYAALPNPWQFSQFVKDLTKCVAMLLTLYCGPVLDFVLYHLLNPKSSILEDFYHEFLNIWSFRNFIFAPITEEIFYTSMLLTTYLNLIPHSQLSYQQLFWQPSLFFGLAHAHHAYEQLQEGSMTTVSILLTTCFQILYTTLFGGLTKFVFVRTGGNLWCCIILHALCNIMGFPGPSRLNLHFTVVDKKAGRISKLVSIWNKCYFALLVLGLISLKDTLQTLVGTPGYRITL
# Yeast UUG start: modulators of start codon recognition fidelity in yeast; 350,000 tested, 0.13% active; activity score, % at 18.7 µM; S. cerevisiae UUG-firefly luciferase reporter, luminescence/redox ratio; AID 602363;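 active means replicate mean at a twofold rise or more, about +100% in these data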;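 further: firefly luciferase made from a UUG start codon reports start codon fidelity; reporter light over untreated wells divided by growth signal over untreated wells; some hits fall short of that in this replicate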
# eIF4H inh: inhibitors of RNA binding by human eIF4H; 290,000 tested, 0.94% active; eIF4H fluorescence polarization binding assay; inhibition, % at 35 µM; Q15056;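 active means 50% or more with normal probe brightness, or confirmed in later tests; about a fifth of its hits are not listed in these tables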;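 further: calls also rest on retests at 20 µM and on dose response follow-up; 0% = protein and probe with vehicle and 100% = probe without protein; strong numbers were not always called active; many hits fall short of the cut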
# MT1-MMP act inh RFP: further read-out of MT1-MMP act inh, marked with its call; RFP signal change, %; measured here: RFP expression control read;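 0 = vehicle wells; hits needed this value within 50% of zero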
# An asterisk follows results filed as active; i = inactive; nt = no result given. Hits appear at their usual frequency; any-hit rate near 2.9%.
# Sample of the layout:
# Under each structure: MT1-MMP act inh	MT1-MMP act inh RFP	CSC inhib	PABP FP inh	Env fusion inh	Rce1 inh	Yeast UUG start	eIF4H inh
> O=C(CCc1ccccc1)N/N=C/c1cccc(O)c1
 : 3	8	-3	-8	-7	i	nt	-8
> Cc1cc(CN2CCN(CC(=O)Nc3cc(Cl)ccc3-n3cncn3)CC2)no1
 : 0	5	nt	nt	-5	nt	-27	nt
> COC(=O)N/N=C/c1ccc(-c2ccc(Cl)c(Cl)c2)o1
 : 6	4	-8	2	-26	i	nt	-8
> CCc1ccc(N2CC(C(=O)OCC(=O)NC3CC3)CC2=O)cc1 (stereo unspecified)
 : -1	0	-18	nt	-500	nt	-9	nt
> CCOc1ccccc1N1C(=O)c2ccc(S(=O)(=O)c3ccc(C(=O)O)cc3)cc2C1=O
 : 3	4	0	11	4	nt	-5	-16
> CC(C)(C)N(NC(=O)Nc1ccc(Cl)cc1)C(=O)c1ccccc1
 : -8	-8	0	3	nt	i	-27	-3
> CCC(=O)N1CCc2cc(S(=O)(=O)NCCCOC)ccc21
 : 3	-3	-10	2	11	i	0	5
> CCCc1n[nH]c2c1/C(=N\OCC)CC(C)(C)C2
 : 0	-1	-12	-8	-11	i	nt	-1
> CCc1cc2c(=O)c(-c3nc4ccccc4n3C)coc2c(CN2CCC(C)CC2)c1O
 : -8	-7	nt	5	13	i	-6	-1
> CSCCC(NC(=O)c1cc([N+](=O)[O-])ccc1Cl)C(=O)O (stereo unspecified)
 : -5	-4	-7	-1	14	i	-2	-3

# This part in full, repeating the preview:
# Under each structure: MT1-MMP act inh	MT1-MMP act inh RFP	CSC inhib	PABP FP inh	Env fusion inh	Rce1 inh	Yeast UUG start	eIF4H inh
> O=C(CCc1ccccc1)N/N=C/c1cccc(O)c1
 : 3	8	-3	-8	-7	i	nt	-8
> Cc1cc(CN2CCN(CC(=O)Nc3cc(Cl)ccc3-n3cncn3)CC2)no1
 : 0	5	nt	nt	-5	nt	-27	nt
> COC(=O)N/N=C/c1ccc(-c2ccc(Cl)c(Cl)c2)o1
 : 6	4	-8	2	-26	i	nt	-8
> CCc1ccc(N2CC(C(=O)OCC(=O)NC3CC3)CC2=O)cc1 (stereo unspecified)
 : -1	0	-18	nt	-500	nt	-9	nt
> CCOc1ccccc1N1C(=O)c2ccc(S(=O)(=O)c3ccc(C(=O)O)cc3)cc2C1=O
 : 3	4	0	11	4	nt	-5	-16
> CC(C)(C)N(NC(=O)Nc1ccc(Cl)cc1)C(=O)c1ccccc1
 : -8	-8	0	3	nt	i	-27	-3
> CCC(=O)N1CCc2cc(S(=O)(=O)NCCCOC)ccc21
 : 3	-3	-10	2	11	i	0	5
> CCCc1n[nH]c2c1/C(=N\OCC)CC(C)(C)C2
 : 0	-1	-12	-8	-11	i	nt	-1
> CCc1cc2c(=O)c(-c3nc4ccccc4n3C)coc2c(CN2CCC(C)CC2)c1O
 : -8	-7	nt	5	13	i	-6	-1
> CSCCC(NC(=O)c1cc([N+](=O)[O-])ccc1Cl)C(=O)O (stereo unspecified)
 : -5	-4	-7	-1	14	i	-2	-3
> CS(=O)(=O)NNC(=O)C1Cc2c(ccc3ccccc23)O1 (stereo unspecified)
 : 2	1	-9	-2	-7	i	-4	-9
> O=C(CSc1nc(C2CC2)nc2ccccc12)N1CCc2ccccc2C1
 : nt	nt	-10	-14	nt	i	nt	-2
> CC(CN(C)Cc1ccccc1)OC(=O)c1cccc(F)c1 (stereo unspecified)
 : -1	4	-4	-6	-2	i	-11	2
> Cc1ccccc1NC(=O)c1cccc(S(=O)(=O)N2CCOCC2)c1
 : -1	2	nt	-2	-4	i	-9	-2
> Cc1ccnc(NC(=O)CNC(=O)c2ccc(C)s2)c1
 : -2	2	-9	nt	-6	i	-5	nt
> O=C(N/N=C/c1ccc2c(c1)OCO2)c1cccc(NC(=O)c2ccccc2Cl)c1
 : -7	-9	-3	5	-7	nt	-10	-7
> CCCC(c1nnnn1CCC(C)C)N1CCC(C(N)=O)CC1 (stereo unspecified)
 : -2	4	-4	7	0	i	-19	1
> CCN(C(=O)CSc1nnc(Cc2cccc3ccccc23)n1N)C1CCS(=O)(=O)C1 (stereo unspecified)
 : -4	-2	nt	4	nt	i	nt	8
> COc1ccc(C(CNC(=S)NCc2ccccc2)N2CCCC2)cc1 (stereo unspecified)
 : 1	5	5	-16	8	i	nt	-1
> COc1ccc(CNc2ccc(S(N)(=O)=O)cc2)cc1
 : -2	-2	-5	3	-2	i	nt	1

# Next section.
# Under each structure: MT1-MMP act inh	MT1-MMP act inh RFP	CSC inhib	PABP FP inh	Env fusion inh	Rce1 inh	Yeast UUG start	eIF4H inh
> CCc1nnc(NC(=O)C2CCN(S(=O)(=O)c3ccc(C)cc3)CC2)s1
 : 4	1	1	-1	-4	i	nt	-1
> COc1cccc(/C=C/C(=O)OCC(=O)c2ccc(S(=O)(=O)N3CCCCC3)cc2)c1OC
 : 8	0	-3	nt	7	i	-12	nt
> O=C(OC1CCOC1=O)c1ccc(N2CCCC2)c([N+](=O)[O-])c1 (stereo unspecified)
 : 5	5	-9	-9	9	i	nt	8
> O=C1CC(C(=O)O)NC(=S)N1 (stereo unspecified)
 : -1	0	nt	nt	4	nt	-4	nt
> O=C(N/N=C/c1c(Cl)[nH]c2ccccc12)c1sc2ccccc2c1Cl
 : -5	-9	1	-3	nt	i	nt	-8
> C/C(=N/N=C(/C)c1cccs1)c1cccs1
 : -2	-1	2	12	-167	i	-21	-8
> CCc1noc(C)c1C(=O)N(C)CC(=O)Nc1ccccc1Br
 : -2	-1	-7	nt	-3	i	5	nt
> CCc1ccc2c(c1)C(O)(CC(=O)c1cccs1)C(=O)N2 (stereo unspecified)
 : -8	-2	nt	-9	8	i	-14	-5
> O=C1NC(c2ccccc2)Nc2c1sc(=S)n2-c1ccccc1 (stereo unspecified)
 : -6	-10	11	-7	6	i	nt	4
> Cc1ccc(NC(=O)CCCc2ccccc2)c([N+](=O)[O-])c1
 : -3	-4	-16	2	-17	i	-12	21
> O=C1c2ccccc2C(=O)c2c1ncn2-c1ccccc1
 : -4	3	-7	8	-58	i	-2	0
> Cc1cc(C)cc(OCC(=O)OCc2nnc(-c3ccccc3)o2)c1
 : -3	2	nt	-11	-9	i	nt	-1
> Cc1ccc(C(=O)Nc2nnc(-c3ccncc3)o2)cc1
 : 3	3	2	-2	-27	i	nt	7
> CCN1C(=NCCc2ccc(Br)cc2)N[C@@H](c2ccccc2)[C@H](C(=O)OC)[C@H]1C
 : -4	-2	26	nt	0	nt	2	nt
> Fc1ccc(N/N=C/C=C/c2ccccc2)c(F)c1
 : 2	4	-21	-3	nt	i	nt	-3
> O=C(OCn1nnc2ccccc2c1=O)C1CCN(S(=O)(=O)c2cccs2)CC1
 : 6	6	-2	-12	-49	i	-10	2
> O=C(/C=C/c1ccccc1)NCCc1ccccc1
 : 2	6	-1	12	nt	nt	-1	19
> CCOC(=O)c1nn(-c2ccccc2F)c(-c2ccccc2)c1C(=O)c1ccccc1
 : -8	-9	55	-4	nt	i	3	0
> COc1cc(CC(=O)C(=O)O)oc(=O)c1
 : -8	2	nt	nt	-4	nt	-16	nt
> CCCCCCCNC(=O)CN1N=C(c2ccc(C)cc2)CCC1=O
 : 1	-2	-1	7	-3	i	7	-2

# (more compounds)
# Under each structure: MT1-MMP act inh	MT1-MMP act inh RFP	CSC inhib	PABP FP inh	Env fusion inh	Rce1 inh	Yeast UUG start	eIF4H inh
> CCOc1ccc(S(=O)(=O)NCCC(=O)N(C)Cc2cccs2)cc1
 : -1	4	-9	nt	nt	nt	-4	nt
> CCOc1ccc(-n2c(SCc3ccc(C(=O)OC)o3)nc3c(c2=O)SCC3)cc1
 : -3	-8	2	-6	-16	nt	-5	-12
> CC(=O)C(Cc1ccccc1)NC(=O)CN1c2cccc3cccc(c23)S1(=O)=O (stereo unspecified)
 : -3	-4	-9	nt	nt	nt	-3	nt
> CCOC(=O)Nc1sc(C)c(C)c1C(=O)OCC
 : -6	-1	0	24	-2	i	nt	-6
> NC(=O)COc1ccc(NC(=O)CC23CC4CC(CC(C4)C2)C3)cc1
 : -1	3	-9	4	-27	i	-5	-7
> O=C(Oc1ccc(=O)n(-c2ccccc2)n1)c1ccc(Cl)cc1
 : 3	5	5	12	nt	i	21	-2
> CCN(Cc1ccccc1)C(=O)c1ccc(Cl)cc1[N+](=O)[O-]
 : -2	0	-1	-14	7	i	nt	-5
> CCN(CC)c1ccc(NC(=O)c2[nH]c(C)c(C(C)=O)c2C)c(C)c1
 : -4	-11	3	-13	nt	i	-10	-1
> C[C@@H]1CC2[C@@H]3CC[C@H]4CC(=O)CC[C@]4(C)C3=CC[C@]2(C)[C@@]1(O)C(=O)CO (stereo partly specified)
 : 2	3	-8	0	3	i	-19	-2
> CCN1C(=O)[C@@H]2[C@@H](c3ccc(-c4ccc5c(c4)OCO5)c(OC)c3)N3CCC[C@@]3(C(=O)OC)[C@@H]2C1=O
 : -6	0	-19	nt	18	nt	-3	nt
> COc1ccc(N=C2NN=C(c3c(C)[nH]c4ccccc34)CS2)cc1
 : -5	-9	101*	6	-26	i	nt	2
> COc1ccc(CCn2c(C)cc(C(=O)COC(=O)c3cnc(C)cn3)c2C)cc1
 : 2	0	7	nt	-9	i	nt	nt
> CC(=O)C1C(c2ccc([N+](=O)[O-])cc2)c2c(noc2C)CC1(C)O (stereo unspecified)
 : -5	0	15	-4	-11	i	nt	0
> COCC(=O)N(Cc1nc2ccccc2c(=O)[nH]1)Cc1cccs1
 : -10	2	nt	14	-2	i	-8	-7
> CC(C)(O)CNC(=O)C(Cc1ccccc1)N1C(=O)c2ccccc2C1=O (stereo unspecified)
 : -1	2	0	5	-11	i	4	-3
> COc1ccccc1C1CC(c2ccco2)=NN1S(C)(=O)=O (stereo unspecified)
 : -14	1	-7	-3	0	i	nt	5
> CC1(C)Cc2cccc(OCC(=O)OCC(=O)NCc3ccc(F)cc3)c2O1
 : 0	4	-4	nt	-30	i	-20	nt
> CNC(=S)NNc1ccccc1[N+](=O)[O-]
 : 4	1	15	-5	4	i	-18	1
> O=C(c1ccc(F)cc1)n1ccc(-c2cnc(-c3ccccc3)s2)n1
 : 5	-2	0	-9	nt	i	-12	-4
> COc1ccc(S(=O)(=O)Nc2cccc3c2O[C@H](CN(C)S(=O)(=O)c2ccc(F)cc2)[C@H](C)CN([C@H](C)CO)C3=O)cc1
 : -3	-2	1	nt	24	nt	-3	nt

# (list continues)
# Under each structure: MT1-MMP act inh	MT1-MMP act inh RFP	CSC inhib	PABP FP inh	Env fusion inh	Rce1 inh	Yeast UUG start	eIF4H inh
> COc1ccc(S(=O)(=O)N2CCCC(C(=O)Nc3ccc(OC)c(OC)c3)C2)cc1 (stereo unspecified)
 : -24	-19	-11	-2	5	i	-21	2
> Nc1cnc(CNc2ccccc2Cl)cn1
 : -2	0	14	12	2	i	-25	-4
> CN(C(=O)c1ccc(Br)o1)C1CCS(=O)(=O)C1 (stereo unspecified)
 : -1	1	-4	4	-2	i	-18	4
> O=C(NCc1ccccn1)C(=O)NCC1OCCN1S(=O)(=O)c1ccc(F)cc1 (stereo unspecified)
 : 0	2	-4	0	3	i	-22	8
> CCOC(=O)N1CCN(S(=O)(=O)c2cccs2)CC1
 : 6	7	-6	-4	nt	i	-19	-1
> CCCCCN(C(=O)CCC(=O)OCC(=O)c1ccc(CCC)cc1)c1c(N)n(CCCC)c(=O)[nH]c1=O
 : -4	-10	-7	nt	-1	i	-20	nt
> CC(C)(C)CNc1cc(N2CCCC2)ccc1[N+](=O)[O-]
 : -3	0	-1	0	nt	i	-15	-2
> CC(C)c1ccc(CNC(=O)C2CC(=O)N(C3CCCCC3)C2)cc1 (stereo unspecified)
 : 1	6	-18	-4	6	i	-8	-8
> O=C1C=C(O)CC(c2ccc(Cl)c(Cl)c2)C1 (stereo unspecified)
 : 1	2	-1	-1	nt	i	2	1
